# Screens (PubChem)
# TNFa cytotox: cytotoxicity in TNFa-stimulated HUVEC, primary screen, cytotoxicity control for VCAM1 expression modulator project, imaging, Hoechst nuclei count; HUVEC TNFalpha-stimulated, Hoechst cell count; cell count reduction, % at 2 µM; hit rate 0.17% among 93,000; AID 848, 2007;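 active = cell count reduction exceeding the screen mean by over 5 SD, scaled to untreated wells per plate, cut at about 78% in these data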;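 also: cells counted after 24 h of TNF alpha exposure following the 1 h pretreatment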
# VCAM1 TNFa inh: inhibitors of TNFa-induced VCAM1 expression, primary screen, imaging, HUVEC, TNFa stimulus, immunofluorescence; HUVEC TNFa-induced VCAM-1 immunofluorescence, high-content imaging; inhibition, % at 2 µM; hit rate 0.48% among 95,000; AID 802, 2007;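 active = inhibition above the batch mean plus 3 SD, with images confirmed as a hit by eye, cut at about 37% in these data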;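 also: 0% = TNF-stimulated DMSO wells and 100% = unstimulated control wells; not every result past the cut was called active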
# hDAT+cocaine: changed hDAT dopamine uptake under cocaine IC80, either direction, primary screen, cocaine antagonist project, cell-based, LLC-PK1 hDAT, [14C]-dopamine uptake, MLSMR; hit rate 1.3% among 110,000; B-score at 10 µM; LLC-PK1 hDAT cells, [14C]-dopamine uptake with cocaine IC80; actives deviate in either direction; AID 449768, 2010; Sodium-dependent dopamine transporter (Homo sapiens), Q01959;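 active = Z score or B-score, a plate-position-corrected score, falls beyond the plate's 99.7% confidence bounds, in either direction; inactive = both scores lie inside the 99.7% bounds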;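 also: scored against the spread of the other compound wells on the same plate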
# Calb biofilm kill: clotrimazole potentiators killing Candida biofilms, primary screen, with clotrimazole, Alamar Blue. C. albicans biofilm + clotrimazole. inhibition, % at 6 µM. hit rate 0.14% among 85,000;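 active = inhibition above 20%; inactive = inhibition below 20%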;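 also: preformed 24 hr biofilms exposed to compound for 48 hr; 0% = biofilm without compound and 100% = blank killed by clotrimazole plus chlorhexidine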
# IL1B cytotox: cytotoxicity in IL-1B stimulated HUVEC, primary screen, cytotoxicity control for IL-1B NFkB translocation project, imaging, Hoechst nuclear count, IL-1B stimulus; hit rate 0.41% among 94,000; cell count reduction, % at 2 µM; HUVEC cell count loss;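 active = cell count reduction more than 3 SD above the screen-wide mean, cut at about 70% in these data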;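 also: normalized per plate to untreated control cells as the no-loss baseline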
# Numbers without * were called inactive; x = not tested or not shown; & = joins results of further samples. This is a subset, so the mix of outcomes need not match the whole.
# Start of the data: the first 4 compounds, ahead of the listing:
# Letters – A = TNFa cytotox; B = VCAM1 TNFa inh; C = hDAT+cocaine; D = Calb biofilm kill; E = IL1B cytotox
Cc1ccc(C2CC(=O)C(C=NCCN3CCN(C(=O)Cc4ccccc4)CC3)=C(O)C2)cc1 (stereo not given)
  A: -21; B: 15; C: 1.2; D: 1; E: -64
O[C@@H]1CCCC[C@H]1N1CCC(c2ccccc2)CC1
  A: -12; B: -3; C: -0.49; D: 7; E: -42
CC(=O)OC1C2CCCC1C(N1CCCC1)CC2 (stereo not given)
  A: -18&-18; B: 3&14; C: -0.87&-0.22; D: 0&8; E: -20&19
COc1ccc(-n2c(O)c(C(C)=NCCCn3ccnc3)c(=O)[nH]c2=O)cc1
  A: 30; B: 11; C: -0.21; D: 5; E: 15

# The listing, from the first entry:
# Letters – A = TNFa cytotox; B = VCAM1 TNFa inh; C = hDAT+cocaine; D = Calb biofilm kill; E = IL1B cytotox
Cc1ccc(C2CC(=O)C(C=NCCN3CCN(C(=O)Cc4ccccc4)CC3)=C(O)C2)cc1 (stereo not given)
  A: -21; B: 15; C: 1.2; D: 1; E: -64
O[C@@H]1CCCC[C@H]1N1CCC(c2ccccc2)CC1
  A: -12; B: -3; C: -0.49; D: 7; E: -42
CC(=O)OC1C2CCCC1C(N1CCCC1)CC2 (stereo not given)
  A: -18&-18; B: 3&14; C: -0.87&-0.22; D: 0&8; E: -20&19
COc1ccc(-n2c(O)c(C(C)=NCCCn3ccnc3)c(=O)[nH]c2=O)cc1
  A: 30; B: 11; C: -0.21; D: 5; E: 15
C=CCn1c(O)c(C=NCCN(C)C)c(=O)[nH]c1=O
  A: 20; B: 0; C: 0.17; D: 10; E: -110
CC(NCc1ccc(Cl)cc1Cl)C(O)c1ccccc1 (stereo not given)
  A: 7; B: 1; C: 0.57; D: x; E: -6
Cc1ccc(NP(=O)(Oc2ccccc2F)Oc2ccccc2F)cc1
  A: -13; B: 6; C: 0.22; D: x; E: -5
CCCCOc1ccc(CC2C(=O)N(C)C(=O)N(C)C2=O)cc1
  A: -22; B: 6; C: -0.058; D: 3; E: -20

# Laid out differently: entries from further up
compound,TNFa cytotox,VCAM1 TNFa inh,hDAT+cocaine,Calb biofilm kill,IL1B cytotox
Cc1ccc(C2CC(=O)C(C=NCCN3CCN(C(=O)Cc4ccccc4)CC3)=C(O)C2)cc1 (stereo not given),-21,15,1.2,1,-64
O[C@@H]1CCCC[C@H]1N1CCC(c2ccccc2)CC1,-12,-3,-0.49,7,-42
